# Screens from PubChem BioAssay.
# Arbovirus inh – antivirals against arbovirus infection. arbovirus infection cell-based antiviral screen. inhibition, % at 10 µM. 200,000 compounds, 0.37% hits;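 active means inhibition from about 30%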;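 further: bluetongue infection of BSR cells; cell survival read as ATP light after 72 h; 0% = infected wells without compound and 100% = uninfected wells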
# YopH PTP inh – inhibitors of Yersinia enterocolitica YopH tyrosine phosphatase; 140,000 compounds, 0.16% hits; fluorescence Ex485/Em525; inhibition, %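 (about 10 µM by stock and volumes)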;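 active means inhibition of 50% or more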;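 further: controls were vehicle for no effect and minimum signal wells for full effect; inactives centre near -20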
# Mtb H37Rv – M. tuberculosis H37Rv growth inhibitors, H37Rv strain (AID 1626); M. tuberculosis H37Rv growth inhibition; higher % means a stronger effect; 220,000 compounds, 0.95% hits; inhibition, % at 10 µM; hits with a dose series show IC50 in µM;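 active means confirmed in a dose series; inconclusive means inhibition above 80% but not taken into the dose series; inactive means below 80% or under 30% at every dose of the series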;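 further: bacteria incubated seven days before Alamar blue readout; 0% = bacteria only wells and 100% = bacteria with antibiotic wells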
# Mtb bLac sens – beta-lactam sensitization of Mtb H37Rv | AID 434955 | M. tuberculosis H37Rv growth with meropenem, percent inhibition; hits of this screen are not shown here | 330,000 compounds, 0.27% hits | inhibition, % at 25 µM;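 active means about 74% or more and at least 40 points above the plate without the antibiotic, then above 30% in a dose series; inconclusive means first-round hits that could not be retested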;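 further: growth measured after seven days incubation then overnight dye step; 0% = bacteria only wells and 100% = bacteria with antibiotic; twin plates without the antibiotic show which effects depend on it; some results filed as inactive read as strong as hits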
# RecA intein inh – blocks M. tuberculosis RecA intein splicing; inhibition, %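 (about 9 µM by stock and volumes)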; AID 2221; P9WHJ3; cell-free RecA intein splicing, fluorescence; 290,000 compounds, 0.75% hits; in the data active means inhibition above about 30%; inconclusive means no clear call, values can overlap the other calls;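 further: 0% = vehicle wells and 100% = reference inhibitor control wells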
# Target sequence (P9WHJ3 whole entry, looked up): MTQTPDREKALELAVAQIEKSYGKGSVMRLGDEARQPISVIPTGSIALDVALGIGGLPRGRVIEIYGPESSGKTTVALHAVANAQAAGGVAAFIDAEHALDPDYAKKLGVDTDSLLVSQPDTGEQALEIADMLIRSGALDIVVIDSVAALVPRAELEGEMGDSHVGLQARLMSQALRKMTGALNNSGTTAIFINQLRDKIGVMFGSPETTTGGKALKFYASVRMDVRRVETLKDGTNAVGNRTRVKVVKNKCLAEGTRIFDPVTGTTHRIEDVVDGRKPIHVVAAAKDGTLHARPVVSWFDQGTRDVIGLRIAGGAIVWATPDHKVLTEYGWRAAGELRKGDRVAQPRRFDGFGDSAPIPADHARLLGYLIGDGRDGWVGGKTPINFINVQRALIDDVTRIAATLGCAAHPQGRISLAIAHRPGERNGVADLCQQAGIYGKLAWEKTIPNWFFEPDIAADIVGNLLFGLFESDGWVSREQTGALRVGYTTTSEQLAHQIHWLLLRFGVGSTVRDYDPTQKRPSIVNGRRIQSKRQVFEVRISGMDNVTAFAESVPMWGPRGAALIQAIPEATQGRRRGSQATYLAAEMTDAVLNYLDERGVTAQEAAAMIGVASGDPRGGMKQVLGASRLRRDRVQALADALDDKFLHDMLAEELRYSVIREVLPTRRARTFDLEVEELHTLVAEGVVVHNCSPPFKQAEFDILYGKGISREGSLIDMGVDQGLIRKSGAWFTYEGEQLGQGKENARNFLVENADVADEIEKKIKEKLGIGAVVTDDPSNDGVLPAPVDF
# Arbovirus inh repeat – recorded beside Arbovirus inh, whose call it bears; inhibition, %; measured here: 10K subset replicate screen; many hits read low in the repeat;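 first of two repeat runs on a subset; 0% = infected and 100% = uninfected wells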
# Active calls of the source: *; ? = inconclusive; · = not tested or not shown.
# The opening 4 entries (preview)
SMILES,Arbovirus inh,YopH PTP inh,Mtb H37Rv,Mtb bLac sens,RecA intein inh,others
Cc1c(Cl)cccc1NS(=O)(=O)c1cccc2nsnc12,·,·,·,-6,1.0,
Cc1nc2ccccc2c(=O)n1/N=C/c1ccc([N+](=O)[O-])o1,·,·,?,100,-6.1,
CSc1nc(-c2ccccc2)nn1S(=O)(=O)c1ccc(Cl)cc1,3,-30,-1%,91,3.0,
CCCN(C(=O)CSCc1c(C)noc1C)c1c(N)n(Cc2ccccc2)c(=O)[nH]c1=O,·,·,·,-6,-0.4,

# The list itself, repeating the preview:
SMILES,Arbovirus inh,YopH PTP inh,Mtb H37Rv,Mtb bLac sens,RecA intein inh,others
Cc1c(Cl)cccc1NS(=O)(=O)c1cccc2nsnc12,·,·,·,-6,1.0,
Cc1nc2ccccc2c(=O)n1/N=C/c1ccc([N+](=O)[O-])o1,·,·,?,100,-6.1,
CSc1nc(-c2ccccc2)nn1S(=O)(=O)c1ccc(Cl)cc1,3,-30,-1%,91,3.0,
CCCN(C(=O)CSCc1c(C)noc1C)c1c(N)n(Cc2ccccc2)c(=O)[nH]c1=O,·,·,·,-6,-0.4,
CCN1C(=NCC2CC2)N[C@@H](c2cccc(C(F)(F)F)c2)C(C(=O)OC)=C1C,·,·,·,-1,-0.3,
COc1ccc(NC(=O)C(=O)NCCCn2ccnc2)cc1,-7,·,-14%,-16,-0.3,
CCOC(=O)/C(N)=C/c1ncc(C(F)(F)F)cc1Cl,8,-43,13%,3,3.0,
Cc1cccc(-n2ncc3c(N(C)C4CCCCC4)ncnc32)c1,-1,·,39%,41,1.5,Arbovirus inh repeat=5
COc1cccc(C(=O)NC2CCN(CC(=O)Nc3ccccc3Cl)CC2)c1,·,·,·,3,2.3,
CCCCC(=O)Nc1ccc(C(=O)NNC(=O)CCCOc2ccc(Cl)cc2Cl)cc1,0,-15,10%,6,-2.9,
CC(C)c1cccc(C(C)C)c1O,·,·,-9%,-1,4.8,
Cc1cc(C(F)(F)F)c2c(N)c(C(=O)NC3CC3)sc2n1,·,·,·,-14,-3.2,
NC(=O)c1c(NC(=O)c2ccccc2)sc2c1CCCC2,·,·,·,0,-10,
CSCCC(NC(=O)c1ccc([N+](=O)[O-])cc1Cl)C(=O)OC1CCCCC1=O (stereo not drawn),·,·,·,-1,0.1,
CCCCn1c(N)c(N(CCC(C)C)C(=O)c2ccccc2C)c(=O)[nH]c1=O,·,·,·,3,0.5,
O=C(CSc1nnc(Nc2ccccc2F)s1)NCc1ccco1,1,-45,2%,·,·,
Cc1cccc(C(=O)c2ccccc2C(=O)O)c1,·,·,-3%,1,1.3,
O=c1ccc(-c2n[nH]c(=S)n2-c2ccc(F)c(Cl)c2)n[nH]1,2,·,1%,-7,-6.9,
Cc1cc(C)c(S(=O)(=O)NCCCN2CCOCC2)cc1Br,-9,-11,0%,-4,-1.3,Arbovirus inh repeat=-6
CC1(C)C2CCC1(CS(=O)(=O)NCc1ccc(S(N)(=O)=O)cc1)C(=O)C2 (stereo not drawn),·,·,·,-4,-0.8,
Cc1cc(C(=O)N2CC(C)CC(C)C2)n(-c2ccccc2)n1 (stereo not drawn),-11,-43,-2%,-2,0.3,
CCn1c(NC)cc(=O)n(C)c1=O,6,-12,-1%,-2,-0.9,
CCc1ccc(CCC(=O)Nc2sc3c(c2C#N)CCCC3)o1,-13,-20,7%,-2,3.9,
Cc1cc(NS(=O)(=O)c2ccc3c(c2)OCCO3)no1,·,·,-10%,-6,1.3,
CCCc1cc(=O)oc2cc(OC(C)C(=O)NCCCn3ccnc3)ccc12 (stereo not drawn),·,·,·,-3,-0.6,
O=C(CSc1nnc(NC(=O)Cc2ccccc2)s1)NCc1ccco1,0,·,-2%,2,2.9,
CCCCN(CCCNC(=O)c1ccc(CS(=O)(=O)c2c(Cl)cccc2Cl)o1)Cc1ccccc1,·,·,·,0,8.3,
CC1CCCCC1NC(=O)CN1CCC(NC(=O)c2cccc(F)c2)CC1 (stereo not drawn),·,·,·,-3,-0.8,
O=C(Nc1cc(Cl)ccc1N1CCOCC1)C1=COCCO1,·,·,·,-10,-0.4,
Cc1[nH]c2ccccc2c1/C=N/NC(=O)CNC(=O)c1ccccc1,·,·,-8%,-5,0.5,
CCCCN1C(N)=NC[C@H]1Cc1ccc(O)cc1,·,·,-5%,-6,-2.0,
Cc1ccc(NC(=O)C2CCN(S(=O)(=O)c3cccnc3)CC2)cc1C,·,·,·,-12,0.6,
O=Nc1[nH]c(=O)c(/C=C(\O)c2ccccc2)nc1NO,·,·,·,2,6.7,
COc1ccc(NC(=O)/C=C/c2ccc(F)cc2)cn1,-3,-19,2%,2,0.7,
CCOc1ccc(C(=O)Nc2ccc3c(c2)OCCO3)cc1,·,·,·,3,-0.6,
COc1cc(C(=O)Nc2cccc(-c3nc4cc(C)ccc4o3)c2C)cc(OC)c1OC,4,-39,0%,4,-1.7,
CCOc1ccc(NC(=S)C(C#N)=C2N(C)c3ccccc3N2C)cc1,6,·,54%,2,-1.5,
O=C1C=C(NCCN2CCOCC2)CC(c2ccccc2)C1 (stereo not drawn),5,-28,-17%,1,0.3,
CCN(CC)c1ccc(/C=C2\C(=O)NC(=S)N(c3ccc(OC)cc3OC)C2=O)o1,·,·,·,3,-3.7,
CCOC(=O)C1CCCN(Cc2cn(C)nc2-c2ccc3c(c2)OCCO3)C1 (stereo not drawn),-2,·,0%,5,-3.2,
CC(C)N=C(NC#N)SCC(=O)NC(C)(C)C,0,0,0%,-4,0.3,
COc1cccc(C(=O)N2CCN(Cc3ccccc3C(F)(F)F)CC2)c1,-1,-36,3%,-1,3.5,
CCSc1nnc(NC(=O)Cc2ccc(OC)cc2)s1,13,12,-2%,-3,·,
O=C(COC(=O)CCc1ccc(S(=O)(=O)N2CCOCC2)cc1)NCc1ccc(Cl)cc1,8,·,0%,0,0.5,
O=c1c(F)cn(C2CCCO2)c(=O)n1Cc1ccc(Cl)cc1 (stereo not drawn),-5,·,-12%,10,·,
COC(=O)c1c(NC(=O)C2CCCCC2C(=O)O)sc2c1CCCCC2 (stereo not drawn),8,·,-15%,-1,1.1,
COc1cn(-c2ccccc2)nc1C(=O)Nc1ccc(C)cc1,·,·,·,13,1.1,
Cc1cccc(C)c1NC(=O)CSc1nnc(-c2ccncc2)n1Cc1ccco1,10,-37,-1%,-1,2.0,
O=C(O)c1ccc(Nc2nc(-c3ccc([N+](=O)[O-])cc3)nc3ccccc23)cc1,·,·,·,3,2.7,
CC1CCCC(NC(=O)CNC(=S)N(Cc2ccccc2)Cc2cccs2)C1C (stereo not drawn),-12,·,16%,-4,15,

# New compounds follow:
SMILES,Arbovirus inh,YopH PTP inh,Mtb H37Rv,Mtb bLac sens,RecA intein inh,others
Cc1cccn2c(=O)nc(SCC(=O)NCCc3ccccc3)nc12,·,·,·,-12,2.7,
CC1C(=O)CCC1(C(=O)O)c1ccccc1 (stereo not drawn),-1,-27,2%,-2,-0.3,
CCOC(=O)c1c(C)[nH]c(C(=O)CN2C(=O)NC(C)(c3ccc(C)cc3)C2=O)c1C (stereo not drawn),6,·,-8%,-2,-1.6,
CCn1c(SCC(=O)NC2CCCC2)nnc1C(C)NC(=O)c1ccccc1F (stereo not drawn),·,·,·,2,5.4,
COc1cccc(N=C2CC(C)(C)CC(=O)/C2=C(/O)c2ccccc2)c1,-1,·,5%,1,-5.7,
Cc1ccc(C(=O)N2CCC(C)CC2)cc1NC1=NC2CS(=O)(=O)CC2S1 (stereo not drawn),·,·,·,8,-1.4,
Cc1ccc(CS(=O)(=O)c2ncc(Cl)c(C(=O)Nc3ccc(OC(F)F)cc3)n2)cc1,·,·,·,8,14,
COc1ccc(OC2OC3COC(C)(C)OC3C(O)C2NC(C)=O)cc1 (stereo not drawn),-4,-11,0%,-3,-1.4,
CN(C)CC(c1ccccc1)c1ccccc1,·,·,-11%,-13,-1.2,
O=C(c1cc2c(s1)CCCC2)n1cccn1,-2,36,-6%,·,0.0,
CCNC(=O)CC1C(=O)N(c2ccc(OC)cc2)C(=O)N1CCOC (stereo not drawn),·,·,·,7,-1.1,
CCOc1cc(C(N)=O)cc(Br)c1OCc1ccccc1,3,·,4%,6,1.8,
Cc1cc(NC(=O)c2ccc(Cl)cc2)cc(C)c1OCC(=O)N1CCOCC1,·,·,·,-2,-0.7,
CCOC(=O)C1=C(CNCc2ccc(C)cc2)NC(=O)NC1c1ccc(OC)cc1 (stereo not drawn),-2,-16,3%,-7,3.4,
Cc1oc(/N=C/c2ccc(F)cc2)c(C#N)c1C,·,·,·,-1,-2.0,
CCCCSc1nnc(CCC)n1N,2,11,-11%,-1,-0.5,
CC(C)[C@H](CO)Nc1nc(NCc2ccc(S(N)(=O)=O)cc2)c2ncn(C(C)C)c2n1,·,·,-2%,-16,3.5,
COc1ccc(OC)c(-n2c(-c3ccn[nH]3)n[nH]c2=S)c1,·,·,-12%,0,1.6,
CCCS(=O)(=O)N1CCC(C(=O)N2CCN(Cc3ccccc3)CC2)CC1,-4,9,0%,-7,-2.2,
COc1ccc(-n2cnnc2SCC(=O)Nc2cccc(S(=O)(=O)N3CCCCC3)c2)cc1,7,-21,-3%,?,-2.7,
COc1ccc2c(C)cc(SC3CCOC3=O)nc2c1 (stereo not drawn),10,·,-2%,21,-0.1,
CCOC(=O)/C(=C\Nc1ccccc1C(F)(F)F)Sc1ncc(C(F)(F)F)cc1Cl,5,-8,-5%,4,1.7,
CS(=O)(=O)c1ccc2nc(NC(=O)C3=NN(c4ccccc4)C(=O)CC3)sc2c1,·,·,-4%,-3,0.5,
COCCn1c(SCc2cc(C(C)=O)ccc2OC)nc2cc(Cl)ccc2c1=O,-1,-21,1%,1,0.4,
CC(=O)N1CCc2cc(S(=O)(=O)N3CCc4ccccc4C3)ccc21,14,-14,8%,-6,0.3,
Cc1oc(-c2ccc(Cl)cc2)nc1CS(=O)CC(=O)NCCN1CCCCCC1 (stereo not drawn),·,·,·,-14,4.0,
Cc1cc(O)c(C(=O)/C=C/c2ccccc2)c(=O)o1,·,·,·,98,-5.3,
CCN1CCN(CCCNC(=O)c2ccc3c(c2)NC(=O)c2ccccc2S3)CC1,2,-18,-5%,-4,-0.3,Arbovirus inh repeat=-9
COc1ccc(OC)c(NC(=O)c2ccccc2NC(=O)c2ccco2)c1,·,·,9%,0,-1.5,
CSCCC(C(=O)Nc1ccc2c(c1)OCO2)N1C(=O)c2ccccc2C1=O (stereo not drawn),9,13,-12%,-4,-0.7,
Cc1cccc(C)c1NC(=O)CCS(=O)(=O)c1cccc2nonc12,·,·,·,46,-1.1,
Clc1ccccc1OCc1nn2c(-c3ccncc3)nnc2s1,6,0,-6%,-1,0.3,
Cc1cccc2c1cnn2C(=O)CCC(=O)NC1CCCCC1,·,·,·,-6,-14,
CC(C)(C)c1ccc(C(=O)Oc2ccc3c(c2)OCC3=O)cc1,4,11,9%,·,3.1,
O=C(CO/N=C/c1ccccc1OC(F)F)NCc1ccco1,·,·,-3%,3,1.5,
COC(Cn1c(-c2cccc(S(=O)(=O)N(C)C)c2)n[nH]c1=S)OC,3,·,0%,-6,-0.6,
CCOC(=O)c1c(NC(=O)N/N=C/c2ccccc2OCC)sc(C(C)=O)c1C,10,15,9%,·,-2.0,
O=C(NN1C(=O)C2CC=C(Cl)CC2C1=O)c1ccncc1 (stereo not drawn),-4,·,-4%,-7,0.6,
Cc1cc(NC(=O)c2cc(CC(C)C)on2)no1,0,-10,73%,90,0.2,Arbovirus inh repeat=0
Cc1ccsc1-c1nc(CSCC(=O)N2CCC3(CC2)OCCO3)c(C)o1,5,-27,-7%,-10,-1.4,
O=C(NC1CCN(S(=O)(=O)c2ccccc2)CC1)c1ccccc1,·,·,·,-27,1.0,
C/C(N)=C(/C#N)C(=O)COC(=O)C1Cc2ccccc2CN1S(C)(=O)=O (stereo not drawn),14,-44,-14%,-3,-1.0,
O=C(O)CNS(=O)(=O)c1cc(Cl)c(Cl)cc1Cl,2,16,-9%,-10,-0.1,
C/C(=N\NC(=O)c1nn(C)cc1Br)c1ccc(NC(=O)c2ccncc2)cc1,6,-24,-7%,-2,0.2,
O=C(CCc1ccccc1)NCc1ccccc1,-6,·,-8%,-2,1.1,
O=C(NCc1ccccc1)N[C@@H](Cc1c[nH]c2ccccc12)C(=O)O,2,-4,1%,9,-0.2,
COc1ccccc1NC(=O)c1ccc(NC(=O)COC(=O)C2(C)CC2(Cl)Cl)cc1 (stereo not drawn),5,-24,3%,5,-0.1,
O=C(/C=C/c1ccc2c(c1)OCO2)Nc1nc2ccccc2s1,-26,-22,-2%,81,-1.3,
C/C(=N\NC(=O)C1(C)CC1(Br)Br)c1ccc(NC(=O)C2CCC2)cc1 (stereo not drawn),-15,-32,-1%,0,-0.6,

# An excerpt; count on the stated rates, not on these rows.
